TRPML1 ag: human mucolipin-1 channel agonism | TRPML1-expressing cells, Ca2+ dye fluorescence, FDSS; host cell line not named in the record; reference of the full effect not given here | 410,000 tested, 0.12% active | AID 624414 | activation, % (concentration not given with the values) | Q9GZU1; in the data active = activation above about 50%; inconclusive = about 30% to 50%; inactive = below about 30%; further: 0% is about no effect; the text of the record puts the active cut at 80%
Target sequence (Q9GZU1 whole entry, looked up): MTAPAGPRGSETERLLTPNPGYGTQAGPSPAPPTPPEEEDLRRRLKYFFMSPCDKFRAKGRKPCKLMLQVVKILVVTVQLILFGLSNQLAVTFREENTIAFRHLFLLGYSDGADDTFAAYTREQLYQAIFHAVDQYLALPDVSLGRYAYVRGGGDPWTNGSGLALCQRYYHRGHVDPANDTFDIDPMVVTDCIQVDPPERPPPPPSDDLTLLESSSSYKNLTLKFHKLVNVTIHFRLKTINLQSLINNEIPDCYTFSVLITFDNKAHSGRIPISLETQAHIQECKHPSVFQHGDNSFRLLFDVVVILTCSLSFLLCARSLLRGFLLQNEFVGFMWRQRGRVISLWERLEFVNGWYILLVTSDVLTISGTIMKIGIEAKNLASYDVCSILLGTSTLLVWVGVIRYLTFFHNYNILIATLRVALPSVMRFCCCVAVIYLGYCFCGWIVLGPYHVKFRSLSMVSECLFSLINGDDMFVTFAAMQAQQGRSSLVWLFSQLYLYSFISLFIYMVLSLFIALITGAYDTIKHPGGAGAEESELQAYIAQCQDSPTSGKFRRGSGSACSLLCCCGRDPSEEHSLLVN
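Kinetic FDSS Ca2+ read in Tet-induced TRPML1-DL cells (ABD Ca8 dye plus quencher, 45-90 min RT loading): baseline, then compound, then 110 s agonist window; EC80 agonist 54-4 at 4uM final added afterwards for a 110 s antagonist window.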
TRPML1 inh: blocks the human TRPML1 channel. TRPML1-inducible cells, Ca2+ dye fluorescence, FDSS; stronger effect = lower value; inhibition of EC80 agonist-evoked calcium signal. activity change, negative = inhibition, % (test concentration not listed). AID 624415. Q9GZU1. 390,000 tested, 0.02% active; in the data active means activity change below about -50%; inconclusive means about -30% to -50%; inactive means above about -30%;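 further: stimulus is agonist 54-4 at its EC80 concentration; on the % scale 0 is the no-effect control and ±100 the full control effect; compound concentration not given in the record; the text of the record puts the active cut at -80%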
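Tet-induced TRPML1-DL cells loaded with Ca8 no-wash calcium dye were read kinetically on FDSS. Compound addition was followed by EC80 agonist 54-4 (4 uM final); inhibition was read over 110 s.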
Six1-Eya2 inh: inhibitors of human Six1/Eya2 interaction | AlphaScreen GST-Six1/His-Eya2 binding, biochemical; stronger effect = lower value; control for the full effect not named in the record | activity change, % (test concentration not listed) | AID 651725 | 360,000 tested, 0.56% active | Q15475+O00167; in the data active = activity change below about -65%; inconclusive = about -30% to -65%; inactive = above about -30%; further: on the % scale 0 is the no-effect control and ±100 the full control effect; compound concentration not given in the record
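GST-Six1 + His-Eya2 (5X stock: 250/500 nM); Tris pH 8.0, 300 mM NaCl, 0.05% BSA, 0.02% Tween 20; GSH donor/Ni acceptor beads; 1 h 37 °C dark; AlphaScreen readout.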
D2 PAM: positive allosteric modulators of human D2 dopamine receptor. DiscoveRx D2 beta-arrestin cells, luminescence, 90 min; 100% = 57 uM dopamine signal. 360,000 tested, 0.23% active. AID 624464. potentiation, % (test concentration not listed). P14416; active = potentiation of 50% or more; inconclusive = 30% to 50%; inactive = 30% or less;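 further: compound concentration not given in the record; tested on top of an EC20 dose of dopamine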
Target sequence (P14416 whole entry, looked up): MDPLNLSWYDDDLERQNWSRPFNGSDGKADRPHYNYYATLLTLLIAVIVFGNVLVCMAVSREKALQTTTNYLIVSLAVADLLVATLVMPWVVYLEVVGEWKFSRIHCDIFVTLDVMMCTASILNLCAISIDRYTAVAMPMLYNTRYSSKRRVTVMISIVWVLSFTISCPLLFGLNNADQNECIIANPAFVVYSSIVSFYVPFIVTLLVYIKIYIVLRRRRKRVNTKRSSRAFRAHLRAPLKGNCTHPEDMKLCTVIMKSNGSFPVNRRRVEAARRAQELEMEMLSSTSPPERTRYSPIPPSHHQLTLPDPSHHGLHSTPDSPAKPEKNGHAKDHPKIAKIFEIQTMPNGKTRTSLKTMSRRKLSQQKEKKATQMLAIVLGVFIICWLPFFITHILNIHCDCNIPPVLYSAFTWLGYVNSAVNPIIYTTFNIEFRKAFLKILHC
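PathHunter D2 cells, attached overnight at 37 deg C, received compound in DMSO plus dopamine at EC20 (50 nM final) for 90 min at 37 deg C. Beta-arrestin recruitment was read as luminescence after 1 h with detection reagent at ambient temperature.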
TRPV1 PAM: human TRPV1 potentiation. 320,000 tested, 0.02% active. Q8NER1. potentiation, % at 8.33 µM. TRPV1-expressing cells, Fluo-8 calcium influx, capsaicin EC20 potentiation; host cell line not named in the record; control for the full effect not named in the record. AID 540277; active means potentiation above 80%; inconclusive means 30% to 80%; inactive means below 30%; further: 0% is about no effect
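Fluo-8 calcium influx in TRPV1-expressing cells, kinetic read (ex 480/em 520 nm). Compound added and read 3 min for agonist activity, followed by capsaicin at EC20 final and 2 min further read for enhancement.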
CtBP-E1A inh: CtBP/E1A binding inhibition; AID 651724; 340,000 tested, 0.49% active; AlphaScreen GST-E1A/His-CtBP binding, 1536-well; stronger effect = lower value; control for the full effect not named in the record; activity change, % (concentration not given with the values); in the data active means activity change below about -65%; inconclusive means about -30% to -65%; inactive means above about -30%; further: on the % scale 0 is the no-effect control and ±100 the full control effect
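Homogeneous bead-based format: GST-tagged E1A captured on glutathione donor beads, His-tagged CtBP on nickel acceptor beads; compounds precede bead addition by 2 h at 37 °C.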
An asterisk follows results filed as active; ? = inconclusive; · = not tested or not shown. Compounds as they come (roughly 0.95% active in at least one column).

SMILES	TRPML1 ag	TRPML1 inh	Six1-Eya2 inh	D2 PAM	TRPV1 PAM	CtBP-E1A inh
CCCCN(C(=O)CCC(=O)OCC(=O)NCc1ccccc1)c1c(N)n(CCC)c(=O)[nH]c1=O	0.8	-2	31	-2	-10	0
CCOCCOC(=O)C1=C(C)N(C)C(=O)NC1c1cc(Cl)c(O)c(OCC)c1 (centres undefined)	2.7	-8	0	-3	-3	-22
O=C(c1cccc(S(=O)(=O)Nc2ccccc2Cl)c1)N1CCN(c2ccccc2O)CC1	0.9	14	-24	-1	10	-17
CN(CC(=O)Nc1ccccc1Br)C(=O)c1ccccc1OCc1ccc(F)cc1	0.9	24	1	-4	-21	-9
CNc1nccc(-c2ccc(Cl)cc2)c1C#N	2.8	0	8	-7	-14	-1
CCOc1ccc(NC(=O)CS(=O)CC(=O)N(CC(=O)NC(C)(C)C)C2CCCC2)cc1 (centres undefined)	0.4	-8	2	-6	1	2
Cc1ccn2c(NC(=O)c3cccs3)c(-c3ccccc3)nc2c1	0.2	15	-4	2	3	-2
COc1ccc(NC(=O)N2CCN(S(=O)(=O)c3ccc(F)cc3)CC2)c(OC)c1	0.2	-8	-1	-8	-13	-4
CCOC(=O)c1c(C)[nH]c(C(=O)CN2C(=O)NC(C)(C)C2=O)c1C	0.6	2	-1	12	1	4
N=C1/C(=C\c2ccc(-c3cc(Cl)cc(Cl)c3)o2)C(=O)N=C2SC=C(c3ccccc3)N12	-0.6	0	-4	-1	20	-5

Ordered by formula weight (largest number first): seven of the compounds above.
SMILES	TRPML1 ag	TRPML1 inh	Six1-Eya2 inh	D2 PAM	TRPV1 PAM	CtBP-E1A inh
CCCCN(C(=O)CCC(=O)OCC(=O)NCc1ccccc1)c1c(N)n(CCC)c(=O)[nH]c1=O	0.8	-2	31	-2	-10	0
CN(CC(=O)Nc1ccccc1Br)C(=O)c1ccccc1OCc1ccc(F)cc1	0.9	24	1	-4	-21	-9
CCOc1ccc(NC(=O)CS(=O)CC(=O)N(CC(=O)NC(C)(C)C)C2CCCC2)cc1 (centres undefined)	0.4	-8	2	-6	1	2
CCOCCOC(=O)C1=C(C)N(C)C(=O)NC1c1cc(Cl)c(O)c(OCC)c1 (centres undefined)	2.7	-8	0	-3	-3	-22
CCOC(=O)c1c(C)[nH]c(C(=O)CN2C(=O)NC(C)(C)C2=O)c1C	0.6	2	-1	12	1	4
Cc1ccn2c(NC(=O)c3cccs3)c(-c3ccccc3)nc2c1	0.2	15	-4	2	3	-2
CNc1nccc(-c2ccc(Cl)cc2)c1C#N	2.8	0	8	-7	-14	-1

(continued)
SMILES	TRPML1 ag	TRPML1 inh	Six1-Eya2 inh	D2 PAM	TRPV1 PAM	CtBP-E1A inh
CCN(CC)C(=O)CN1C(=O)NC2(CCc3ccccc3C2)C1=O (centres undefined)	0.3	4	0	-10	4	7
CCOC(=O)c1cc2c(=O)n3ccccc3nc2n(Cc2ccccc2)c1=N	0.4	2	1	-12	-27	7
Cc1cccc2sc(N3CCN(C(=O)C4COc5ccccc5O4)CC3)nc12 (centres undefined)	1.5	-5	-2	-2	0	0
CC(=O)c1sc(NC(=O)CCS(=O)(=O)c2ccc(C)cc2)nc1C	0.9	6	5	18	-2	7
Cc1ccc(OCc2cc(C(=O)N3CCCC(O)C3)no2)cn1 (centres undefined)	-0.6	-1	4	-4	-4	1
COc1cc(C(O)P(=O)(OC(C)C)c2ccc(N(C)C)cc2)cc(OC)c1OC (centres undefined)	2.3	-14	-3	-2	-2	-1
CCOC(=O)C1CCCN(C(=O)c2ccc([N+](=O)[O-])c(C)c2)C1 (centres undefined)	1.8	-16	3	-18	-14	3
CS(=O)(=O)N(CC(=O)N1CCCC1)c1ccc(OCc2ccccc2)cc1	-0.3	-2	-3	-7	-5	6
Cc1ccc(CNc2nc(C)c(C(=O)N(C)C)s2)cc1	-0.3	1	8	-5	2	4
CCC(CC)c1nnc(NC(=O)CCc2ccc(OC)cc2)s1	-0.3	18	0	-5	-7	-1

Three records picked at random from the list so far, as already listed:
SMILES	TRPML1 ag	TRPML1 inh	Six1-Eya2 inh	D2 PAM	TRPV1 PAM	CtBP-E1A inh
N=C1/C(=C\c2ccc(-c3cc(Cl)cc(Cl)c3)o2)C(=O)N=C2SC=C(c3ccccc3)N12	-0.6	0	-4	-1	20	-5
CCOC(=O)C1CCCN(C(=O)c2ccc([N+](=O)[O-])c(C)c2)C1 (centres undefined)	1.8	-16	3	-18	-14	3
CCOC(=O)c1c(C)[nH]c(C(=O)CN2C(=O)NC(C)(C)C2=O)c1C	0.6	2	-1	12	1	4

(cont.)
SMILES	TRPML1 ag	TRPML1 inh	Six1-Eya2 inh	D2 PAM	TRPV1 PAM	CtBP-E1A inh
N#C/C=C/N1CCN(C(=O)c2ccco2)CC1	0.5	5	1	6	1	·
Cn1c(Cc2ccccc2)nnc1SCc1ccc(C(=O)O)cc1	2.0	-25	28	-18	-2	0
Cc1cc(C)nc(NC(=O)NC(=O)c2ccccc2)n1	-0.2	7	-1	11	-6	1
O=C(CSc1nnc(Nc2ccccc2)s1)NC1CC1	-0.3	-10	3	-5	-9	·
COc1cc(C(=O)Oc2cc(C)[nH]c(=O)c2[N+](=O)[O-])cc(OC)c1OC	-0.5	-12	12	-1	-2	-1
COc1ccccc1NS(=O)(=O)c1ccc(NC(=O)c2[nH]nc(OC)c2[N+](=O)[O-])cc1	-0.3	0	-7	-23	-15	1
CC(=O)CSc1ncnc2c1cnn2-c1ccccc1	5.6	15	6	1	-6	1
C[C@H]1CN([C@@H](C)CO)C(=O)CCCn2nncc2CO[C@H]1CN(C)C(=O)c1ccncc1	-0.7	-12	3	5	·	7
COc1cccc(CNC(=O)C(=O)NCC(c2ccco2)N2CCOCC2)c1 (centres undefined)	-0.3	-6	-1	-3	2	-1
CCC1CCCCN1C(=O)c1ccccc1OC1CCN(S(C)(=O)=O)CC1 (centres undefined)	-0.3	-12	7	-8	1	6
CCc1ccc(N2CC(O)=C(c3nc4ccccc4c(=O)[nH]3)C2=N)cc1	2.0	-30	20	-4	3	34
COC(=O)CC1COc2ccccc2N1C(=O)c1cccc(C(F)(F)F)c1 (centres undefined)	-1.4	17	-3	-12	-20	2
Cc1ccc(C(=O)NC(C)c2ccccc2)cc1S(=O)(=O)N1CCOCC1 (centres undefined)	0.2	16	2	-10	-17	-1
CCOc1ncccc1C(=O)N1CCN(C(=O)c2ccccc2)CC1	-0.2	-7	2	-3	?	-14
C#CCOCCOCCOCCNc1nc(N2CCN(C(=O)[C@H]([C@@H](C)O)n3cc(CCCCN)nn3)CC2)nc(N2CCN(C(=O)[C@H](C)n3cc(CCCN=C(N)N)nn3)CC2)n1	-0.6	12	8	-16	24	0
COc1ccc(S(=O)(=O)NCCSCc2ccco2)cc1OC	0.2	-4	-6	-2	-8	9
COc1cccc(/C=C2\SC(N3CCCC(C)C3)=NC2=O)c1OC (centres undefined)	-0.2	7	-2	-2	-15	·
COC(c1ccccc1)c1nnc(CCC(=O)N2CCN(CCOc3ccccc3)CC2)o1 (centres undefined)	-0.9	-3	3	-7	-5	7
O=S(=O)([N-]c1nc2ccccc2nc1-[n+]1ccccc1)c1ccc(F)cc1	0.4	5	-2	-22	-3	-9
Cc1onc(-c2cccc(Cl)c2Cl)c1C(=O)O/N=C(\N)c1ccc([N+](=O)[O-])o1	0.9	-5	-13	25	?	-7
Cc1ccc(-c2nc(=O)[nH]c3ccc(Br)cc23)cc1	-0.1	4	-12	-6	8	-1
COc1ccc(C(=O)NNC(=O)CNC(=O)C2CCCCC2)cc1	0.2	-5	-5	0	1	2
CC(C)C(=O)N1CCCC1(C)C(=O)NCc1ccccn1 (centres undefined)	-0.4	·	1	-2	·	1
COC(=O)c1ccc(-n2nnnc2SC)cc1	-0.6	-3	0	-1	7	1
Cc1ccnc(NC(=O)CNC(=O)c2ccccc2Br)c1	-0.2	-13	-15	-10	5	-2
O=C(OCc1nnc(-c2ccc([N+](=O)[O-])cc2)o1)C1CCN(C(=O)c2ccc(F)cc2)CC1	0.8	21	-1	2	-1	-6
O=c1oc2ccccc2c(O)c1/C=C1\C=Nc2ccccc21	0.4	-3	10	2	10	-3
CCOC(=O)Cc1csc(NC(=O)c2cc(C)c(C)s2)n1	-0.5	-3	-1	-13	0	19
Cc1ccc(S(=O)(=O)N2[C@@H](c3ccc(Br)cc3)C(C(=O)O)=CC[C@H]2c2ccc3c(c2)OCO3)cc1	-0.4	3	-3	·	·	1
Fc1ccc(-n2cc(CNCCc3ccncc3)c(-c3ccccc3Cl)n2)cc1	1.0	26	-1	-9	-15	7
Cc1nc2ccccn2c1C(=O)/C=C/c1cccc([N+](=O)[O-])c1	0.4	-4	10	3	-18	9
CC(C)(C)OC(=O)N1CCC(C(=O)Nc2cccc(C(=O)NCCCCc3ccccc3)c2)CC1	-0.6	-1	1	·	·	6
Nc1c(C(=O)NCc2ccco2)nnn1CC(=O)Nc1ccccc1	-0.3	-12	15	-11	3	0
S=C(NCc1ccccc1)N/N=C/c1cccs1	-0.2	1	-3	-15	-13	·
C[C@@H]1CN([C@@H](C)CO)C(=O)c2cc(Br)cnc2O[C@H]1CN(C)C(=O)Nc1ccccc1	0.2	-4	-18	-4	·	-16
Cc1ncc([N+](=O)[O-])n1CC(=O)Nc1ccccc1	0.9	24	7	-6	?	·
CC(=O)c1c(C(=O)O)[nH]c(C(=O)O)c1C	-0.5	4	0	-3	-2	·
CC1CCCCC1NC(=O)c1nn(C)c2c1CS(=O)(=O)c1ccccc1-2 (centres undefined)	0.2	24	3	-8	9	1
O=C(c1ccccc1NS(=O)(=O)c1ccc(Br)cc1)N1CCOCC1	0.7	-1	1	-15	-39	11
C=CCn1c(Sc2ncc([N+](=O)[O-])s2)n[nH]c1=O	0.1	-12	?	-18	-3	-5
O=C(C(=O)N1CCN(c2ccccc2)CC1)c1c[nH]c2ccccc12	0.8	-21	-21	3	-9	-2
CCOCCCNc1nc2nc3ccc(C)cn3c(=O)c2cc1C(=O)NCC1CCCO1 (centres undefined)	0.2	4	6	0	-7	-15
COc1cccc(OC)c1NC(=O)c1ccc(-c2cc(Cl)ccc2Cl)o1	0.0	·	-8	-10	·	-10
[O-][n+]1cccc(C(O)c2ccccc2)c1 (centres undefined)	0.9	-7	7	1	-4	0
COc1ccc(-c2noc(CN(C(=O)c3c(-c4ccccc4Cl)noc3C)C(C)C)n2)cc1	1.4	60	0	-6	21	0
CCOC(=O)C1(S(=O)(=O)c2ccc(Cl)cc2)CCN(Cc2ccc(Cl)cc2)CC1	0.0	95	-7	-2	·	6
O=C(NC1CCCCCC1)C1c2ccccc2C(=O)N1Cc1cccnc1 (centres undefined)	-0.4	24	1	-2	-2	2
CC(=O)Nc1cc2c(cc1Cl)-c1ccccc1C2O (centres undefined)	0.6	-3	17	2	·	0
O=C(CN1CCN(C(=O)c2ccco2)CC1)Nc1ccc(Cl)c(S(=O)(=O)N2CCOCC2)c1	-0.2	-5	-11	7	0	0
CCN1C(=O)[C@H]2[C@@H](c3ccc(OC)cc3)N[C@]3(CCCN(Cc4ccco4)C3=O)[C@H]2C1=O	-0.1	-6	1	-1	·	0
O=C(CCNS(=O)(=O)c1ccc(Br)cc1)NCCc1ccccc1	-0.5	-16	2	-27	4	9
COc1ccc(S(=O)(=O)NCC(=O)N(CC(=O)NCC2CCCO2)Cc2ccccc2)cc1 (centres undefined)	-0.4	11	7	0	1	25
COc1ccccc1S(=O)(=O)Cc1ccc(C(=O)N2CCOCC2)o1	-0.1	12	3	-6	-2	-1
